Sa ugtP lethal: growth inhibition of ugtP-null S. aureus, primary screen, RN4220 ugtP deletion, OD600; actives 0.54% (n = 330,000); growth inhibition, % (no concentration beside the values); 16 h; some inactives read as strong as hits; AID 1259309, 2017;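 active = z-score under -3 and OD600 up to 0.15 on both plates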;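 also: plate controls were untreated wells for no effect and antibiotic for full effect; wells of about 80 µL received 100 nL stock; the first replicate is given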
BJeLR lethal: MLPCN primary cell-based screen for lethality selective to Ras in HRASV12 cells; inhibition, % (concentration not given with the values); AID 1554, 2009; BJeLR (HRASV12) viability, CellTiter-Glo ATP luminescence, 48 h; reference of the scale not given here; actives 0.17% (n = 300,000);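 active = replicate mean above 50%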;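 also: 50 nL library stock added to about 25 µL; numbers are from one replicate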
RN4220 kill: growth inhibition of S. aureus RN4220, primary screen, OD600 | 16 h | inhibition, % (concentration not given with the values) | actives 0.33% (n = 330,000) | AID 1259311, 2017;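 active = z-score of -3 or lower and OD600 up to 0.18 on both plates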;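 also: plate controls were untreated cells for no effect and reference antibiotic for full effect; stock transfer was 100 nL into about 80 µL; one replicate is shown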
Mtb hypoxia inh: PubChem AID 1159583; fluorescence inhibition, % (concentration not given with the values); M. tuberculosis hypoxia-regulated fluorescent reporter, fluorescence; actives 0.1% (n = 300,000);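 active = 35 to 45% if threefold the growth effect, above 45% if 1.5-fold the growth effect; inactive = the rest, general growth blockers included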;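 also: wells of about 50 µL received 100 nL stock; 0% = vehicle wells and 100% = reference inhibitor wells; whole bacteria with a GFP reporter of the hypoxia response; strong numbers were not always called active; many hits fall short of the cut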
Bead autofluor: compound fluorescence in toxin protease inhibitor counterscreen. fluorescence intensity (concentration not given with the values). compound autofluorescence counterscreen, microsphere flow cytometry; hits give high values. actives 3.1% (n = 360,000);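 active = at least 3 SD above the mean of all compounds, about 16000 in these data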;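 also: 100 nL of 1 mM stock went into each well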
PrP 5UTR inh: inhibition of PrP 5' UTR reporter expression; cell-based PrP 5' UTR mRNA reporter, plate reader; inhibition, % (test concentration not listed); actives 0.35% (n = 340,000);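 active = every replicate at 50% or more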;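 also: 0 = median of the neutral control wells; tested in H4 reporter cells; numbers are from one replicate; inactives centre near -14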
Mtb hypoxia inh growth: recorded beside Mtb hypoxia inh, whose call it bears; growth inhibition, %; measured here: M. tuberculosis growth (absorbance);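 0% = vehicle and 100% = reference antibiotic; read after six days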
An asterisk follows results filed as active; / = no result given.

SMILES | Sa ugtP lethal | BJeLR lethal | RN4220 kill | Mtb hypoxia inh | Mtb hypoxia inh growth | Bead autofluor | PrP 5UTR inh
CN(Cc1ccccc1)C(=O)c1ccc(NC(=O)Cc2cccc(NC(=O)C3CCN(C(=O)C4CCC4)CC3)c2)cc1 | 3 | / | 2.6 | 4 | 8 | 3971 | -4
COc1ccc(N2CCN(S(=O)(=O)c3ccc4c(c3)NC(=O)C(C)C(=O)N4)CC2)cc1 (stereo not drawn) | -2 | 12 | -7.5 | 0 | 10 | 5110 | -23
Cc1[nH]c2ccccc2c1/C=C(/C#N)C(=O)NC(C)C | -7 | 3 | 1.3 | -7 | 12 | 2017 | 2
CCOC(=O)CC1COc2ccccc2N1C(=O)c1cccc([N+](=O)[O-])c1 (stereo not drawn) | 3 | 10 | 2.3 | 9 | 0 | 3244 | -19
C=CCNC(=O)/C(=C\c1cccc([N+](=O)[O-])c1)NC(=O)c1ccccc1 | 7 | -20 | 3.8 | -3 | -5 | 1913 | -24
COc1cc(N2N=C(c3ccccc3)CC2c2ccccc2)c(C=O)cc1C=O (stereo not drawn) | 6 | 4 | 20 | 8 | -3 | 3264 | -20
Cc1cc(C)cc(NC(=O)CSc2nnc(-c3ccccc3Br)o2)c1 | 16 | -4 | 6.3 | 4 | -1 | 21943* | -30
Cc1ccc(C(NC(=O)c2ccccc2S(C)(=O)=O)c2ccccc2)cc1 (stereo not drawn) | -3 | 14 | 3.2 | 5 | 0 | 3244 | -14
CC(C)N1OC2CC1c1nc3ccccc3n1C2 (stereo not drawn) | 2 | 6 | 4.3 | 6 | 1 | 3853 | -8
CCOc1ccc(C(=O)NNC(=O)CN2C(=O)NC3(CCCC3)C2=O)cc1 | 5 | / | 10 | 14 | 7 | 5695 | -13
COc1cccc(C(=O)NC2CCN(CC(=O)NCc3ccccc3OC)CC2)c1 | 12 | -4 | 3.0 | 1 | 2 | 5184 | -10
O=C(Nc1ccc(F)cc1)Nc1cnccn1 | 2 | 0 | 1.2 | 6 | 5 | 5447 | -16
CNC(=O)Nc1ccc(S(N)(=O)=O)cc1 | 4 | -14 | -0.4 | 10 | 4 | 4054 | -6
COc1cccc2c(C)c(C(=O)O)[nH]c12 | -1 | 6 | 7.7 | 7 | 4 | 3427 | -16
O=C(NC1=CC(=O)c2ccccc2C1=O)c1ccccc1 | 16 | / | 58 | 14 | 12 | 4162 | -32
Nc1cccc(C(=O)Nc2ccco2)c1 | 6 | 11 | 2.4 | 11 | 2 | 14571 | -19
O=C(CCCl)Nc1nc2c(s1)CCc1ccccc1-2 | / | 2 | / | / | / | 5192 | -10
CC(=O)N1CCN(CC(=O)Nc2cc(S(=O)(=O)N3CCCCC3)ccc2C)CC1 | 5 | / | 4.2 | 4 | -2 | 3555 | -3
COc1ccc(NS(=O)(=O)c2ccc(O)c(C(=O)OCC(=O)N3CC(C)OC(C)C3)c2)cc1 (stereo not drawn) | 28 | 8 | -6.3 | / | / | 2940 | -11
COc1ccc(NC(=S)N2CCCC(c3nc4ccc(C)cc4[nH]3)C2)c(OC)c1 (stereo not drawn) | 9 | 1 | 5.5 | -11 | -9 | 4828 | -9
CCOC(=O)c1sc2nc(C)nc(Nc3ccccc3)c2c1C | 9 | -2 | 6.8 | -1 | -2 | 4923 | -16
N#Cc1nc(-c2ccccc2)oc1NCCN1CCCCC1 | 8 | 1 | 2.5 | 3 | 3 | 9712 | -5
CN(C)c1nc(-c2cccnc2)nc(-c2ccc(Cl)cc2)c1C#N | 0 | 1 | 11 | 4 | -1 | 4507 | -4
O=C(Cc1ccc(NC(=O)C2CCCN(C(=O)CCc3ccccc3)C2)cc1)Nc1cccc(C(=O)N2CCCC2)c1 (stereo not drawn) | -2 | / | 4.1 | -6 | 3 | 3789 | -26
O=C(Nc1ccnn1C1CCN(Cc2cccc(OCCO)c2)CC1)c1cccc(F)c1 | 7 | 10 | 2.2 | 3 | 1 | 5734 | -13
Cc1ccc(N/C=C/C(=O)c2ccccc2)cc1C | 4 | 1 | 1.8 | -2 | 3 | 2728 | 19
O=C(NCc1ccco1)C(=O)NCc1ccccc1Cl | 2 | -2 | 3.2 | 5 | 8 | 9312 | -7
C[C@]12CCC(=O)C=C1C=C[C@@H]1[C@@H]2CC[C@@]2(C)[C@H]1CC[C@@]21CCC(=O)O1 | 19 | 10 | 2.5 | 3 | -2 | 3039 | -3
CCN(CC)S(=O)(=O)c1ccc(N)cc1 | 4 | 4 | 9.3 | 14 | 5 | 3337 | -15
CCCn1cnc2cc(NC(=O)c3cccs3)ccc21 | 8 | 4 | 0.7 | -4 | 0 | 3156 | -38
C[C@]12CC[C@@H](O)C[C@@H]1CC[C@@H]1[C@@H]2CC[C@]2(C)C(=O)CC[C@@H]12 | / | 3 | / | / | / | 5963 | -5
COCC(C)n1c(C)cc(C(=O)COC(=O)c2nn(C)c(=O)c3ccccc23)c1C (stereo not drawn) | 4 | / | 5.5 | 3 | 8 | 3792 | -3
CN1C(=O)c2ccc(C(=O)Nc3cccnc3)cc2C1=O | 5 | 10 | 0.8 | -2 | 6 | 6408 | -47
CCCc1[nH]nc2c1C(c1ccoc1)C(C#N)=C(N)O2 (stereo not drawn) | 1 | 6 | 3.9 | 5 | -9 | 2078 | -22
COc1cccc(/C=C/C(=O)NNC(=O)c2ccco2)c1OC | 7 | / | 1.5 | 4 | -4 | 2924 | -70
O=c1[nH]c(S)nc2sc3c(c12)CCCC3 | -11 | -7 | 2.0 | -4 | 5 | 4499 | -7
CC(C)CN(CC(C)C)CC(O)COc1ccc([N+](=O)[O-])cc1 (stereo not drawn) | 7 | 5 | 7.0 | -1 | 0 | 2422 | -9
CCn1c(SCC(=O)NC(=O)c2ccccc2OC)nc2ccccc21 | 2 | -8 | 2.4 | 2 | 7 | 5973 | -10
Cc1nnc2c3ccccc3c(-c3cccs3)nn12 | 2 | -1 | -0.8 | -7 | -3 | 4451 | 14
COc1ccccc1/C=C/C(=O)NCc1cccnc1 | 6 | -19 | 1.5 | 7 | 8 | 1985 | 10

Results in BJeLR lethal (four entries from above):
molecule	BJeLR lethal
O=c1[nH]c(S)nc2sc3c(c12)CCCC3	-7
CC(C)CN(CC(C)C)CC(O)COc1ccc([N+](=O)[O-])cc1 (stereo not drawn)	5
CCn1c(SCC(=O)NC(=O)c2ccccc2OC)nc2ccccc21	-8
Cc1nnc2c3ccccc3c(-c3cccs3)nn12	-1

Ordered by molecular weight (largest number first): some entries from above
SMILES | Sa ugtP lethal | BJeLR lethal | RN4220 kill | Mtb hypoxia inh | Mtb hypoxia inh growth | Bead autofluor | PrP 5UTR inh
COc1ccc(N2CCN(S(=O)(=O)c3ccc4c(c3)NC(=O)C(C)C(=O)N4)CC2)cc1 (stereo not drawn) | -2 | 12 | -7.5 | 0 | 10 | 5110 | -23
CCn1c(SCC(=O)NC(=O)c2ccccc2OC)nc2ccccc21 | 2 | -8 | 2.4 | 2 | 7 | 5973 | -10
CCN(CC)S(=O)(=O)c1ccc(N)cc1 | 4 | 4 | 9.3 | 14 | 5 | 3337 | -15

More results follow.
SMILES | Sa ugtP lethal | BJeLR lethal | RN4220 kill | Mtb hypoxia inh | Mtb hypoxia inh growth | Bead autofluor | PrP 5UTR inh
COc1ccc(OC)c(NC(=O)c2ccc(-c3cccs3)cc2)c1 | -3 | -2 | 0.9 | 1 | -5 | 2432 | -2
CCOC(=O)CN1C(=O)NC(c2cccs2)C(C(C)=O)=C1C (stereo not drawn) | 7 | / | 6.6 | 13 | 6 | / | /
O=C(O)CCNS(=O)(=O)c1ccc2c(c1)OCCCO2 | 7 | -11 | 2.6 | 3 | 4 | 4888 | -6
CC(C)C1Oc2ccccc2N(CC(=O)N(C)C2CCCCC2)C1=O (stereo not drawn) | 13 | 0 | -0.3 | -2 | 1 | 4958 | -2
CC(C)c1nc(SCc2ccccn2)c2c(=O)n(C)c(=O)n(C)c2n1 | -1 | 1 | 3.3 | 0 | 7 | 5809 | 3
CC(=O)Nc1ccc(Cl)cc1C1COC(=O)C1=N (stereo not drawn) | / | -8 | / | / | / | 2381 | -10
O=C(Cc1cn2ccsc2n1)OCc1ccccc1 | 4 | -10 | 3.3 | / | / | 3595 | -4
CCn1cc(C(=O)N[C@H](C(=O)NCCCN2CCOCC2)C(C)C)c(=O)c2cc3c(cc21)OCO3 | 12 | -1 | 3.0 | 1 | -5 | 4359 | -3
COC(=O)COc1ccc(S(=O)(=O)N2CCOCC2)cc1 | 1 | 7 | -2.8 | 9 | 14 | 4795 | -18
O=C(CSc1nnc(NC(=O)c2c(F)cccc2F)s1)Nc1ccc(F)cc1 | 8 | 4 | 4.9 | 14 | 9 | 5293 | -17
CCC(C(=O)OCC(=O)Nc1cccc(C(C)=O)c1)c1ccccc1 (stereo not drawn) | -6 | -4 | 7.4 | -6 | -1 | 1992 | -16
CCC1S/C(=N/N=C/c2cccs2)NC1=O (stereo not drawn) | / | 4 | / | / | / | 2710 | -26
COC(=O)C1=C(c2ccc(F)cc2F)C[C@@H]2CC[C@H]1N2C(=O)NCc1ccc(F)cc1 | 6 | / | -13 | 7 | 10 | 2926 | -82
C[C@H](NC(=O)c1ccc(Br)cc1)C(=O)NCc1ccc(S(N)(=O)=O)cc1 | 4 | -7 | 3.5 | 7 | 2 | 2721 | -10
COc1ccc(CC(=O)Nc2ccc(-c3cn4ccccc4n3)cc2)cc1 | 10 | 9 | 14 | 12 | 3 | 3323 | -51
O=c1c2cn[nH]c2[nH]c(=S)n1-c1ccccc1Cl | -2 | -6 | 7.6 | 0 | 11 | 4274 | -19
CN(c1ccc(C(=O)NCc2ccncc2)cc1)S(=O)(=O)c1ccc(Cl)cc1 | 2 | 1 | 0.5 | 6 | 17 | 5626 | 0
O=S(=O)(c1ccccc1Cl)N1CCCC1c1nc(-c2cccc(Cl)c2)no1 (stereo not drawn) | 9 | 2 | 10 | 9 | 14 | 3229 | -11
COc1cc(=O)[nH]c(SCC(=O)Nc2nc3c(s2)CCCC3)n1 | 5 | -7 | 7.0 | 13 | -1 | 4114 | -22
ON=Cc1ccn(-c2ccc(Br)cc2)c1 | -3 | / | 8.5 | 3 | 14 | / | /
CCC(=O)NNc1ncnc2c1cnn2-c1cccc(C)c1 | 0 | -13 | -4.8 | 4 | 8 | 4224 | -24
O=C(O)CCCC(=O)N1N=C(c2c(-c3ccccc3)c3cc(Cl)ccc3[nH]c2=O)CC1c1cccs1 (stereo not drawn) | -4 | 6 | 19 | 7 | 6 | 2033 | -4
CCCCNC(=O)c1nn2c(C(F)(F)F)cc(-c3ccc(OC)cc3)nc2c1Br | / | 7 | / | / | / | 3968 | -24
CN(C(=O)c1ccccn1)C1(C(=O)NC2CCCCC2)CCCCC1 | 1 | -7 | 1.5 | 19 | 15 | 4166 | -28
O=[N+]([O-])c1ccc(Cl)c(S(=O)(=O)/N=C(/c2ccccc2)N2CCOCC2)c1 | / | -4 | / | / | / | 2702 | -29
Cc1nc(SCC(C)C)[nH]c(=O)c1Cc1ccccc1 | 1 | 3 | -5.0 | 5 | 8 | / | -10
CCc1nnc(NC(=O)c2ccc(OC)cc2)s1 | 10 | 7 | 2.4 | 7 | 10 | 3884 | -43
Cc1nc(-c2nnc(SCC(=O)Nc3cc(C(F)(F)F)cc(C(F)(F)F)c3)n2C)cs1 | 5 | 8 | 7.8 | -1 | 1 | 3855 | -6
O=C(COc1ccc2c(C(F)(F)F)cc(=O)oc2c1)NCc1cccs1 | 11 | 5 | -0.8 | 14 | 12 | 2465 | -21
Cc1ccc(N2CC(=O)Nc3c(sc4nc(C)cc(C)c34)C2=O)cc1 | 9 | 8 | 2.5 | 2 | 9 | 3794 | -79
O=C(Nc1ccc(F)c(F)c1)c1ccc(F)c(S(=O)(=O)N2CCC3(CC2)OCCO3)c1 | -5 | 4 | 1.1 | 2 | 5 | 4194 | -28
Cc1n[nH]c(=O)c2c(NC(=O)COC(=O)c3cc(F)cc(F)c3)oc(C)c12 | 14 | 2 | 0.0 | 4 | -16 | 3930 | -10
COC(=O)C1=C(C)Nc2ncnn2C1c1ccc(OCc2ccccc2)cc1 (stereo not drawn) | -3 | 6 | 4.0 | -1 | -3 | 2833 | -5

Source: PubChem BioAssay

Not a hit list (roughly 4% active in at least one column).
